GIV Gai3 FP – GIV-Galpha-i interaction inhibition; percent of control (FP), % (concentration not given with the values); Galpha-i3/FITC-GIV peptide fluorescence polarization, 90 min; hits give low values; scaled: aluminum fluoride 0%, vehicle 100%; P08753; 210,000 compounds, 0.42% hits;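 active = replicate mean at 85% of control or lower, very high polarization wells dropped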;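 also: wells of about 15 µL received 100 nL stock; the first replicate is given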
Target sequence (P08753 whole entry, looked up): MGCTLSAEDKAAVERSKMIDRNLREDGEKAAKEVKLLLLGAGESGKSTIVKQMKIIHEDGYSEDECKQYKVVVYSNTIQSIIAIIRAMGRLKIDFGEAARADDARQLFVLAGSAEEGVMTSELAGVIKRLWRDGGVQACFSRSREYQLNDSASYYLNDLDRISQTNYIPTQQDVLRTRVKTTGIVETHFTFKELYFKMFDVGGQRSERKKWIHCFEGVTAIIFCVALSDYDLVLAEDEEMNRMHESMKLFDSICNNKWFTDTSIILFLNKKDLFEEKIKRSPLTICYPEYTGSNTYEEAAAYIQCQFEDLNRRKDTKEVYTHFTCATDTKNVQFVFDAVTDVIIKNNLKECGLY
Numbers without * were called inactive. Some of the compounds tested. The share of hits here may be higher or lower than overall.

structure | GIV Gai3 FP
COc1cccc(-c2cn3c4c(=O)n(C)c(=O)n(C)c4nc3n2-c2ccc(C)cc2)c1 | 116.6
Cc1[nH]n(-c2ccccc2)c(=O)c1C(c1ccc(F)cc1)c1c(C)[nH]n(-c2ccccc2)c1=O | 72.0*
O=c1c2cnn(-c3ccc(Br)cc3)c2ncn1Cc1nc(-c2ccc(F)cc2)no1 | 105.4
Cc1cc(NC(=O)CSc2nc3ccccc3c(=O)n2CC2CCC(C(=O)NCCc3ccccc3)CC2)no1 (centres undefined) | 105.5
COc1ccc(C2=NN(C(C)=O)C3(SC(C(C)=O)=NN3c3ccccc3)N2C)cc1 (centres undefined) | 101.8
Cc1c(C(=O)N2CCOCC2)sc2ncnc(N3CCN(c4ccccc4F)CC3)c12 | 106.5
CCN(CC)S(=O)(=O)c1ccc(-c2cn3cccc(C)c3n2)cc1 | 107.6
COc1cccc(NS(=O)(=O)c2ccc3c(c2)NC(=O)C(CC(=O)N2CCCC2)CS3)c1 (centres undefined) | 100.6
CCCCC(=O)N1CCC2(C1)C(=O)Nc1ccccc12 (centres undefined) | 104.1
Cc1sc(-c2cc(C(F)(F)F)on2)cc1S(=O)(=O)N(C)Cc1ccco1 | 99.3
COCCN(Cc1ccc(F)cc1)Cc1cc(=O)n2nc(C3CC3)sc2n1 | 111.5
O=c1c2cn[nH]c2[nH]c(=S)n1-c1ccccc1F | 99.1
Cn1nc(CC(=O)NCC2COc3ccccc3O2)c2ccccc2c1=O (centres undefined) | 120.4
Cc1ccc(C(=O)NCC(=O)NCc2cscn2)cc1C | 105.6
O=C(CSc1nc2cc(C(=O)NCC3CCCO3)ccc2c(=O)n1CC1CCCO1)NC1CCCC1 (centres undefined) | 119.2
O=C(NN1C(=O)c2ccc([N+](=O)[O-])c3c([N+](=O)[O-])ccc(c23)C1=O)c1cccc([N+](=O)[O-])c1 | 105.7
CN(C)c1ccc(NC(=O)CSc2nc3ccccc3nc2Cc2cccc([N+](=O)[O-])c2)cc1 | 106.4
COc1cccc(C(=O)N2CSC[C@@H]2C(=O)NCCc2cscn2)c1 | 102.4
CS(=O)(=O)Nc1ccc(-c2noc(-c3ccc(Br)cc3)n2)cc1 | 108.2
CC1=C(C)CS(=Nc2ccc(Cl)cc2)N(S(=O)(=O)c2ccccc2)C1 (centres undefined) | 103.6
O=C(c1noc2ccc(S(=O)(=O)N3CCN(c4ccc(Cl)cc4)CC3)cc12)N1CCCC1 | 102.8
O=c1c([N+](=O)[O-])c(N2CCN(c3ccccn3)CC2)c2ccccc2n1-c1ccccc1 | 110.0
CCOc1ccccc1N/C(SCc1ccc(C)cc1C)=C(/C#N)C(=O)NCc1cccs1 | 114.8
Fc1cc(F)cc(-c2noc3ncnc(N4CCCC4)c23)c1 | 103.1
Cc1cc(C)c2c(n1)sc1c(=O)n(CC(=O)NCc3ccc(Cl)cc3)cnc12 | 102.0

Another view of part of the listing above:
mol: O=C(CSc1nc2cc(C(=O)NCC3CCCO3)ccc2c(=O)n1CC1CCCO1)NC1CCCC1 (centres undefined)
  GIV Gai3 FP: 119.2

mol: CCOc1ccccc1N/C(SCc1ccc(C)cc1C)=C(/C#N)C(=O)NCc1cccs1
  GIV Gai3 FP: 114.8

mol: COc1cccc(NS(=O)(=O)c2ccc3c(c2)NC(=O)C(CC(=O)N2CCCC2)CS3)c1 (centres undefined)
  GIV Gai3 FP: 100.6

mol: Cc1[nH]n(-c2ccccc2)c(=O)c1C(c1ccc(F)cc1)c1c(C)[nH]n(-c2ccccc2)c1=O
  GIV Gai3 FP: 72.0*

Continued.
structure | GIV Gai3 FP
CC(C)Oc1ccccc1NC(=O)C1OC2OC3(CCCCC3)OC2C2OC3(CCCCC3)OC12 (centres undefined) | 104.7
CCN(CC)c1nc(C)nc2sc(C(=O)Nc3c(F)cccc3F)c(C)c12 | 101.9
CCC(Sc1nc2n[nH]c(C)c2c(=N)n1-c1ccc(OC)cc1)C(=O)Nc1ccccc1OC (centres undefined) | 107.8
O=C(Nc1ccc(Oc2ccc3ccccc3c2Br)c(Cl)c1)c1cc(Br)cc(Br)c1O | 106.5
Cc1nc2cc(-c3noc(Cc4ccc(F)cc4)n3)ccc2o1 | 95.7
CCn1cnc2cc(-c3noc(C(C)Oc4ccccc4)n3)ccc21 (centres undefined) | 99.6
CCOC(=O)N1CCC(Nc2ncnc3c2c(-c2ccccc2)cn3-c2cccc(Cl)c2)CC1 | 106.4
COc1ccc(OC)c(N(CC(=O)Nc2ccc(Br)cc2)S(=O)(=O)c2ccccc2)c1 | 109.6
COC(=O)C1=CN(Cc2ccc(OC)c(OC)c2)C=C(C(=O)OC)C1c1ccc(OC)c(OC)c1OC | 116.9
C=CCn1c(SCC(=O)Nc2ccccc2C)nc2sc(CC)cc2c1=O | 106.2
O=[N+]([O-])c1ccc(N2CCN(S(=O)(=O)c3cccc4nonc34)CC2)c(C(F)(F)F)c1 | 113.3
O=C(OCCSC1=NS(=O)(=O)c2ccccc21)c1ccccc1Br | 101.3
Cc1nc(-c2ccc(-c3noc(CNC(=O)c4ccccc4)n3)cc2)cs1 | 107.3
O=C(CSc1nc2ccccc2c(=O)n1NC(=O)CCc1c[nH]c2ccccc12)NCc1ccccc1Cl | 117.4
CCOc1ccc(NC(=O)CSc2nc3ccccc3c(=O)n2NC(=O)c2cccs2)cc1 | 101.4
COc1ccc(-c2cc(C#N)nc(N3CCN(c4ccccc4)CC3)n2)cc1 | 111.6
COc1ccc(COC(=O)C2=C(C)NC(=O)NC2c2cc(OC)c(O)c([N+](=O)[O-])c2)cc1 (centres undefined) | 99.9
CCSc1nc2ccccc2n1CC(=O)Nc1ccc([N+](=O)[O-])cc1 | 116.7
CCCCC1(CC)NC(=S)N(c2ccccc2)N1 (centres undefined) | 104.2
Cc1ccnc(N2CCC(C(=O)NCCc3c[nH]c4ccccc34)CC2)n1 | 96.7
COc1ccccc1/C=C1\CCC/C(=C\c2ccccc2OC)C1=O | 110.5
CCOC(=O)C1=NN(c2ccc(C)cc2)C2(S1)c1ccccc1C(c1ccc(Cl)cc1)=NN2c1ccccc1 (centres undefined) | 112.8
CC(=O)N1CCC(=O)N(Cc2ccccc2)c2ccccc21 | 101.1
O=C(NC1CC1)C1CCCN(c2nnc3ccc(Cl)cn23)C1 (centres undefined) | 104.7
COC(=O)c1ccc(N2C(=O)C3C4C=CC(C(OC(C)=O)OC(C)=O)(O4)C3C2=O)cc1 (centres undefined) | 104.8

Following part:
structure | GIV Gai3 FP
FC(F)(F)c1ccc(C2Nc3cccc4cccc(c34)N2)cc1 | 107.3
CCS(=O)(=O)Nc1ccc(C2(C(=O)N3CCN(CC(C)C)CC3)CCCCC2)cc1 | 102.4
CCCCOc1ccc(C2CC(=O)C3=C(C2)c2c(ccc4ccccc24)NC3c2ccc(Br)cc2)cc1 (centres undefined) | 110.3
Cc1cccc(-c2cnc(N3CCC(C(=O)N4CCC(C)CC4)CC3)nc2)c1 | 102.1
CCCCNc1nc(SCC(=O)N(C)CCCC)nc2ccccc12 | 114.1
CCOc1cccc2c1N(C(=O)c1ccccc1)C(C)(C)C1=C2C2(SC(C(=O)OC)=C(C(=O)OC)S2)C(C(=O)OC)=C(C(=O)OC)S1 | 109.9
COC(=O)C1=C(C(=O)OC)SC2(S1)C(C(=O)OC)=C(C(=O)OC)SC1=C2c2cc(C)ccc2N(C(=O)CC(C)C)C1(C)C | 116.9
Cn1c(=O)n(CC(=O)N2CCN(c3cccc(Cl)c3)CC2)c(=O)c2ccccc21 | 118.9
O=S(=O)(c1ccc(F)cc1F)N1CCC(c2noc(-c3ccccc3)n2)CC1 | 103.3
O=C(Nc1ccc(OCc2cc(=O)n3ccccc3n2)cc1)Nc1cccc(Cl)c1 | 101.7
COc1cccc(Cc2nc3ccccc3nc2SCC(=O)N2CCNC2=O)c1 | 116.0
CCC(=O)Nc1cccc(-c2noc(C3CCCN(C(=O)Cc4ccc(F)cc4)C3)n2)c1 (centres undefined) | 104.5
O=C(NCc1ccc(F)cc1)c1ccc(-c2ccc(F)cc2)nc1 | 108.9
CC(=O)Nc1ccc(N=Cc2c(C)[nH]n(-c3ccc(C)c(C)c3)c2=O)cc1 | 117.4
CCC(=O)NC1=NC(=O)/C(=C\c2cc(OC)c(OC(=O)CC)c(OC)c2)S1 | 106.3
O=C(CSc1nnc2c3sc(N4CCCC4)nc3ncn12)Nc1ccc(F)c(F)c1 | 110.1
CCOP(=O)(C=C1C=C(C(C)(C)C)C(=O)C(C(C)(C)C)=C1)OCC | 108.4
Cc1ccc(-c2nc3ccc(Cl)cc3nc2-c2ccc(C)cc2)cc1 | 105.5
Cc1nc(SCC(=O)Nc2ccc3ccccc3c2)c(C#N)c(C)c1Cl | 106.5
CCCCCNc1ncnc2c1sc1nc(N3CCOCC3)c3c(c12)CC(C)(C)OC3 | 111.5
CC(=O)Nc1ccc(NC(=O)c2ccc(=O)n(Cc3ccc(Cl)cc3)c2)cc1 | 109.0
O=C(Nc1ccc(Br)cc1)c1cccc(Nc2ncc(-c3cccc(F)c3)cn2)c1 | 105.1
COc1ccccc1N1CCN(C(=O)/C(=C/c2ccccc2)NC(=O)c2ccccc2)CC1 | 107.7
c1ccc(Sc2ccc(-c3[nH]c(-c4cccc5ccccc45)nc3-c3ccccc3)cc2)cc1 | 97.3
Cc1nc2cc(-c3noc(-c4cccnc4)n3)ccc2o1 | 94.7

New compounds follow.
structure | GIV Gai3 FP
NS(=O)(=O)c1ccc(NC(=O)C2(c3ccccc3)CCCC2)cc1 | 99.1
CCCCNC(=O)c1ccc(-c2ccc(N3CCCC3)nn2)cc1 | 107.3
Cc1c(C(=O)NCCN2CCOCC2)sc2ncnc(N3CCN(c4ccccn4)CC3)c12 | 101.5
COc1ccc(OC)c(C2NC(=S)NC(C)=C2C(=O)Nc2ccccc2C)c1 (centres undefined) | 120.9
Cc1cccc2nc(-c3ccc(F)cc3)c(-c3ccc(F)cc3)nc12 | 98.9
Cc1ccccc1Nc1nc(C2(C)CC3(CC(COCCC(C)C)OC3=O)C(=O)O2)cs1 (centres undefined) | 112.1
Cc1c(S(=O)(=O)NC2CC2)c(C)n(C)c1-c1nnc(C2CCC2)o1 | 106.6
COC(=O)Nc1ccc(S(=O)(=O)N2CCC(C(=O)Nc3ccc(I)cc3C)CC2)cc1 | 111.0
Cc1ccc(N2CC(C(=O)Nc3ccc4c(c3)N(C)C(=O)c3ccccc3O4)CC2=O)cc1C (centres undefined) | 97.6
O=C(Cc1c(F)cccc1Cl)Nc1cc(C(=O)N2CCCCCC2)ccc1N1CC2CC(C1)c1cccc(=O)n1C2 (centres undefined) | 105.5
COc1ccc(/C(O)=C2\C(=N)N(c3ccccc3Cl)C3=C(C(=O)CCC3)C2c2ccc3c(c2)OCO3)cc1 (centres undefined) | 123.7
Fc1ccc2nc3c(nc2c1)c1ccccc1n3Cc1ccc(C(F)(F)F)cc1 | 120.7
O=C(CCc1nc(-c2ccc(N3CCCC3)cc2)no1)N1CCN(c2ncccn2)CC1 | 100.5
O=S(=O)(NCc1nc2cccnc2n1Cc1ccccc1)c1ccc(Cl)cc1 | 106.5
c1ccc(COc2ccc(C3N(Cc4ccccc4)CCN3Cc3ccccc3)cc2)cc1 | 109.9
CC(C)CCCC(C)C1CCC2C3CC=C4CC(OC(=O)C(C)Cl)CCC4(C)C3CCC12C (centres undefined) | 112.9
COc1cc(C2Nc3ccc4ccccc4c3C3=C2C(=O)CC(c2ccccc2)C3)cc(Br)c1O (centres undefined) | 110.9
CCNC(=O)C1CCc2sc(C(=O)N3CCC(C)CC3)cc2C1 (centres undefined) | 112.8
CCSCCOC(=O)C1=C(C)NC2=C(C(=O)CC(C)(C)C2)C1c1cc(Br)c(O)c(OC)c1 (centres undefined) | 102.9
COc1ccc(NC(=O)CSc2nc3c(c(-c4ccccc4)c2C#N)CN(C)CC3)cc1OC | 113.5
CC12CCC(C(=O)N(CNc3ccccc3)C1=O)C2(C)C (centres undefined) | 107.7
CCC(C)NC(=O)N1CCC(N2CCN(Cc3ccc(F)cc3)C(=O)C2=O)CC1 (centres undefined) | 97.4
Cc1cccc(Cc2c(C)nc3c(C(=O)N4CCN(Cc5ccc6c(c5)OCO6)CC4)cnn3c2C)c1 | 107.9
COc1ccc(Cl)cc1NC(=O)c1cc2cccc(OC)c2oc1=Nc1ccc(C(=O)O)cc1 | 118.2
COc1cccc(-n2cc(C(=O)NCCC(=O)Nc3nc4ccccc4s3)c3ccccc3c2=O)c1 | 102.3

(next part)
structure | GIV Gai3 FP
CCOC(=O)c1nc(Nc2ccc(F)cc2)c2c(C)c(C)n(-c3ccccc3)c2n1 | 97.8
COC(=O)C1=C(N)OC2=C(C(=O)CC(C)(C)C2)C1c1cccs1 (centres undefined) | 105.7
Cc1ccc(S(=O)(=O)N2CSC[C@@H]2C(=O)NCc2csc(C)n2)cc1 | 104.8
CCc1nc2sc(C(=O)Nc3cccc(C(F)(F)F)c3)c(N)c2cc1C | 108.4
CC(=O)Oc1ccc(C2Nc3c(C(=O)c4ccccc4)cc(Cl)cc3C3C=CCC32)cc1 (centres undefined) | 110.1
CCCOCC1OC2OC(C)(C)OC2C2OC(C)(C)OC12 (centres undefined) | 106.6
CCCCC(C(=O)Nc1ccccc1OC)N1C(=O)C2C3c4ccccc4C(c4ccccc43)C2C1=O (centres undefined) | 111.4

Given as labelled records: 4 of the compounds above.
SMILES: COc1ccccc1N1CCN(C(=O)/C(=C/c2ccccc2)NC(=O)c2ccccc2)CC1
  GIV Gai3 FP = 107.7
SMILES: c1ccc(Sc2ccc(-c3[nH]c(-c4cccc5ccccc45)nc3-c3ccccc3)cc2)cc1
  GIV Gai3 FP = 97.3
SMILES: Cc1nc2cc(-c3noc(-c4cccnc4)n3)ccc2o1
  GIV Gai3 FP = 94.7
SMILES: NS(=O)(=O)c1ccc(NC(=O)C2(c3ccccc3)CCCC2)cc1
  GIV Gai3 FP = 99.1
